Ecoli rRNA inh: reduced GFP signal of wild-type E. coli, primary screen, bacterial rRNA inhibitor project, GFP/RFP fluorescence, OD600, single point | actives 1.6% (n = 350,000) | AID 720706, 2013 | E. coli WT GFP vs humanized-ribosome RFP mutants, 24 h; hits give low values; DMSO median 0, no signal -100 | GFP signal change (wild-type ribosome), % (test concentration not listed);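 active = significant combined selectivity score with lowered wild-type GFP, culture density cut under 30%, mutant RFP and density less affected; inactive = any of these conditions unmet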; note: one replicate is shown; some compounds called inactive have numbers as strong as hits
ALR H2O2 inh: inhibitors of human ALR sulfhydryl oxidase, primary screen, biochemical, H2O2 detection, HRP-luminol luminescence, single point; purified ALR, DTT oxidation; FAD-linked sulfhydryl oxidase ALR (Homo sapiens), P55789; inhibition, % (concentration not given with the values); actives 3.8% (n = 290,000);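 active = mean and each replicate at 75% or more; inconclusive = only one of the two met; inactive = neither met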;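 note: stock transfer was 7.5 nL into about 7.5 µL; 0% = neutral wells and 100% = wells with inactivated enzyme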
Target sequence (P55789 whole entry, looked up): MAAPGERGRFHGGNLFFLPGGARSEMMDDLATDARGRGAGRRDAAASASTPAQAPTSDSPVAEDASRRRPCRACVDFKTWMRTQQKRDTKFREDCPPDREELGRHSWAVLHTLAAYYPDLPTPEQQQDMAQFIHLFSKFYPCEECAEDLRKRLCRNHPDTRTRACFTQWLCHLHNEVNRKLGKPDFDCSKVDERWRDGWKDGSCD
FGF22 binding: binders of human FGF22 protein, primary screen, FGF22 synaptogenesis inhibitor project, biophysical, thermal shift, single point; actives 1.5% (n = 340,000); calls only at 9.99 µM; Fibroblast growth factor 22 (Homo sapiens), Q9HCT0; recombinant FGF22 thermal shift, SYPRO orange fluorescence; percent of sucrose octasulfate shift, DMSO zero;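 active = melting point raised past a set limit in the mean and every replicate; inconclusive = no clear call; three in four hits are not shown here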
Target sequence (Q9HCT0 whole entry, looked up): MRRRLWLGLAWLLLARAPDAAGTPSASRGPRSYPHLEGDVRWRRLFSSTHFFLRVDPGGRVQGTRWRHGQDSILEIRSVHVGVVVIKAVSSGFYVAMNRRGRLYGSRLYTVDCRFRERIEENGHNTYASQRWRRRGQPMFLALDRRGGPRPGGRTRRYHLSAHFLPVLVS
Vif A3G: inhibitors of Vif binding to APOBEC3G peptide, primary screen, biochemical, TR-FRET, GST-Vif 1-94, biotin-A3G peptide, dose response retest (AID 1117319) | Virion infectivity factor (Human immunodeficiency virus type 1 group M subtype B (isolate … | TR-FRET GST-Vif / biotin-A3G peptide binding; higher % means a stronger effect; test concentration not given here; strong numbers were not always called active | inhibition, %; hits with a dose series show IC50 in µM | actives 0.57% (n = 260,000);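 active = above the screen mean plus three standard deviations and confirmed in dose response; inconclusive = results disagree or hit not tested in dose response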;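 note: Vif residues 1-94 fused to GST binding biotinylated APOBEC3G peptide 110-148; 0% = full assay without inhibitor and 100% = GST in place of GST-Vif; retest series ran down from 100 µM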
HNF4A DNA FP: change in binding of human HNF4A to DNA, primary screen, biochemical, fluorescence polarization, FITC-DNA; 1 h; Hepatocyte nuclear factor 4-alpha (Homo sapiens), P41235; activity change, % at 10 µM; actives 0.3% (n = 360,000); in the data active = activity change above about 30%, passing the limit was not always enough;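 note: controls were the assay level and a saturating level of protein; the project sought stronger binding though the title names inhibitors; some compounds called inactive have numbers as strong as hits; positive values seem to mean higher polarization but the record does not say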
MLL AF4-AF9 inh: inhibitors of AF4 peptide binding to AF9, primary screen, biochemical, AlphaScreen, biotin-AF4 peptide, FLAG-AF9, single point; Protein AF-9 (Homo sapiens), P42568; inhibition, % at 10 µM; actives 0.47% (n = 350,000); AID 651704, 2012;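 active = every replicate reaching a set inhibition limit, whatever the replicate mean, cut at about 25% in these data; inconclusive = mean inhibition reaches that limit but some replicates miss it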;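 note: 0% = plate neutral control median and 100% = total signal loss; the record names both 10 and 1 µM as test concentration; the first replicate is given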
Target sequence (P42568 whole entry, looked up): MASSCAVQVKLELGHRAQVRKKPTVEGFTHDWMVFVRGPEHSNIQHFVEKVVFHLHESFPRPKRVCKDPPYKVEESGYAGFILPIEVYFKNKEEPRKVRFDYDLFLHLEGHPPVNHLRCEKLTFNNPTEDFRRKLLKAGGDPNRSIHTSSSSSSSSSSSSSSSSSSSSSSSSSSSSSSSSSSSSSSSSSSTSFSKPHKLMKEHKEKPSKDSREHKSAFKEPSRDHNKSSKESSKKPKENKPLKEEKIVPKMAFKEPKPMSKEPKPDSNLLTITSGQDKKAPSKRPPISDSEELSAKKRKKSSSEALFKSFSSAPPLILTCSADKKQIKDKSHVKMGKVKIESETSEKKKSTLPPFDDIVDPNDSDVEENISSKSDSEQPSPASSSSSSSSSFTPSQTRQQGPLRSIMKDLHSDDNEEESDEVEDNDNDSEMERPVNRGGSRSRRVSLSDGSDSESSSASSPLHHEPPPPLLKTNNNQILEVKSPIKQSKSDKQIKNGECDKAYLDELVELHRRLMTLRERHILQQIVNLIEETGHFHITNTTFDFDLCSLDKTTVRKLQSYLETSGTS
Ecoli growth: E. coli growth inhibition, primary screen, OD600; Escherichia coli growth, 23 h; hits give low values; OD600 absorbance (concentration not given with the values); actives 0.21% (n = 330,000); AID 1053175, 2014;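 active = OD600 absorbance below the run mean of sample wells minus 3.6 SD, in any replicate, cut at about 0.56 in these data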;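 note: stock transfer was 300 nL into about 60 µL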
Ecoli rRNA inh OD600: recorded beside Ecoli rRNA inh, whose call it bears; OD600 change, %; measured here: OD600 growth;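 optical density of the mix in the first replicate; 0 = DMSO median and -100 = no signal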
Ecoli rRNA inh RFP: second read-out of Ecoli rRNA inh, no call of its own (marks repeat the call); RFP signal change, %; measured here: RFP humanized mutant strains;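 first replicate; 0 = DMSO median and -100 = no signal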
* marks the source's active call; other numbers are inactive results; i = inactive; u = inconclusive; x = not tested or not shown; & = joins results of further samples. Not all compounds are listed; rates above refer to the full screens.

Molecule	Vif A3G	Ecoli rRNA inh RFP	ALR H2O2 inh	MLL AF4-AF9 inh	Ecoli rRNA inh OD600	Ecoli rRNA inh	Ecoli growth	FGF22 binding	HNF4A DNA FP
CN(C)C(=O)[C@H]1[C@H](CO)[C@H]2Cn3c(ccc(-c4ccccc4F)c3=O)[C@@H]1N2C(=O)c1ccccc1	x	0.7	x	-0.2	5	1	x	i	x
Cc1ccc2nc(C)c(C(=O)N/N=C/c3ccccc3[N+](=O)[O-])cc2c1	3%	x	3	x	x	x	x	x	5.4
CCNc1nc(NCC)nc(N(CC)C(N)=S)n1	x	4.9	-28	-2.7	0	7	0.67	i	2.2
Cc1onc(-c2ccccc2Cl)c1C(=O)Nc1ccc(-c2nnc3n2CCCCC3)cc1	24%	x	3	x	x	x	0.69	x	3.5
O=C(CSc1nnc(CNC(=O)c2c(F)cccc2Cl)o1)NC1CCCCC1	x	0.1	5	-3.0	-3	1	0.65	i	6.3
CCN(CC(=O)NCc1ccc(Cl)cc1)C(=O)CSc1ccccc1F	-8%	1.5	2	-0.9	2	0	0.69	i	-5.3
CCN(CC)C(=S)Sc1c(-c2ccccc2)c2cc(Cl)ccc2[nH]c1=O	3%	x	-2	x	x	x	0.73	x	-3.1
O=[N+]([O-])c1ccc(CSc2ncnc3c2ncn3[C@@H]2O[C@H](CO)[C@@H](O)[C@H]2O)cc1	x	-5.6	-43	0.3	-37	-30	x	i	0.8
Cc1cc2nc(-c3cccc(Cl)c3)c(Cc3ccsc3)n2c(C)c1Br	x	5.1	x	0.1	2	-2	x	i	7.5
O=C(N/N=C\c1ccc(F)cc1)c1csnn1	u	x	-2	x	x	x	x	x	2.9
O=C(Nc1cc(F)ccc1F)N[C@@H]1CC[C@H](CCn2cc(C3CC3)nn2)O[C@@H]1CO	x	1.6	x	-0.3	-4	1	x	i	x
CCN(CC)S(=O)(=O)c1ccc(NC(=O)c2ccccn2)cc1	30%	x	-4	x	x	x	0.72	x	-2.5
O=C(Nc1cccc(F)c1)N1CC(=O)N2[C@H](CO)[C@@H](c3ccc(Br)cc3)[C@H]2C1	x	3.5	x	-0.9	-8	-4	x	i	x
O=C(Nc1ncc2c(n1)CC(c1ccco1)CC2=O)c1ccc(Cl)cc1 (stereo not drawn)	23%	x	-3	x	x	x	0.73	x	-7.1
CCN(CC)CCCNC(=O)c1cn(CC(C)C)c(=O)c2c1c1ccccc1n2C	1%	-1.8	-12	2.8	8	2	0.69	i	0.3
COc1ccc(CN2CCCC(C(=O)c3ccc(Cl)cc3)C2)cc1Cn1cccn1 (stereo not drawn)	5%	-2.3	-12	1.0	-45	-40	0.65	i	-0.3
Cn1cc(Cc2ccc(C(=O)NC34CC5CC(CC(C5)C3)C4)cn2)c2ccccc21	x	-1.0	x	1.2	-19	-14	x	i	1.4
CCCCOc1ccc(NC(=S)Nc2cc(C)nc(SCCCC)n2)cc1	-3%	3.0	15	-7.2	-1	5	0.7	i	-2.2
COc1ccc(-c2cc3ccc(OCc4nn[nH]n4)cc3oc2=O)cc1OC	2%	-3.4	-5	x	-3	2	0.74	x	-2.4
O=C(CN1C(=O)COc2ccccc21)NCC1CCCO1 (stereo not drawn)	5%	-0.9	-2	-2.1	7	3	0.7	i	-2.5
CC(C)c1ccc2c(c1)CCC1C(C)(CN)CCCC21C (stereo not drawn)	24%	-17	-7	9.0	-78	-57	0.48*	i	1.2
N=c1c2c(-c3ccccc3)c(-c3ccccc3)n(Cc3ccco3)c2ncn1Cc1ccco1	-8%	x	-5	x	x	x	0.69	x	2.7
CCCc1cn(CC[C@@H]2CC[C@H](NC(=O)C3CC3)[C@H](CO)O2)nn1	x	-0.9	x	0.9	2	1	x	i	x
COc1ccccc1CNC(=S)NCc1ccc(Cl)cc1	x	8.5	-19	1.0	-49	-32	0.68	i	-1.9

Copied from the list:
Entry for CCCc1cn(CC[C@@H]2CC[C@H](NC(=O)C3CC3)[C@H](CO)O2)nn1 in Ecoli rRNA inh OD600: 2
Entry for COc1ccccc1CNC(=S)NCc1ccc(Cl)cc1 in Ecoli rRNA inh OD600: -49

Additional structures follow:
Molecule	Vif A3G	Ecoli rRNA inh RFP	ALR H2O2 inh	MLL AF4-AF9 inh	Ecoli rRNA inh OD600	Ecoli rRNA inh	Ecoli growth	FGF22 binding	HNF4A DNA FP
CC(=O)Nc1cc2c(cc1Br)OCCO2	2%	x	2	x	x	x	0.71	x	0.4
COCCc1nc2ccc(C(=O)N(C)Cc3cccc(-n4cccn4)c3)cc2o1	x	-0.8	-2	-5.0	-2	-1	0.72	i	0.4
Cc1ccccc1-c1nc2ccc(Cl)cc2c(=O)n1O	2%	-7.2	-1	-0.4	-45	-10	0.65	i	-3.5
Cc1ccc(OCCNC(=O)CCC(=O)N2CCOCC2)cc1	x	2.2	-6	-2.2	0	2	0.63	i	-1.4
CCCCN(C(=O)CSCC(=O)Nc1ccc(C)cc1)c1c(N)n(Cc2ccccc2)c(=O)[nH]c1=O	2%	-1.3	-2	-0.2	4	-1	0.62	x	0.1
COc1ccc(O)c(/C=N/N2CCOCC2)c1	u	-8.1	-1	-30	2	5	x	i	-0.5
O=[N+]([O-])c1ccc(S(=O)(=O)N/N=C/c2ccsc2)cc1	-2%	-0.6	-9	1.9	10	3	x	i	-1.4
O=C(Nc1ccccc1)N1CCN(c2ccccn2)CC1	0%	x	-1	x	x	x	0.66	x	-1.9
COc1ccc(NC(=O)N(C)C[C@@H]2Oc3ccc(NC(=O)Nc4ccc5c(c4)OCO5)cc3C(=O)N([C@@H](C)CO)C[C@@H]2C)cc1	x	2.1	x	3.5	-5	0	x	i	x
CNC[C@H]1OCc2ccccc2-c2ccccc2C(=O)N([C@H](C)CO)C[C@H]1C	11%	-1.3&-0.1	x	-1.8&-2.7	2&-1	1&-2	x	i	-3.4
O=c1[nH]c(C2CCN(S(=O)(=O)c3ccc4c(c3)OCCO4)CC2)nc2c1nnn2Cc1ccccc1	-6%	0.3	x	0.7	-11	-7	0.66	i	-2.2
Cc1cccc(NC(=O)c2ccc(NCCO)c([N+](=O)[O-])c2)n1	x	-4.4	-2	-2.9	1	3	0.69	i	-4.5
Cc1ccc(CN2CCN(c3ncccn3)CC2)o1	0%	-12	-11	5.5	-25	-29	0.66	i	-1.3
C[C@H](CO)N1C[C@H](C)[C@H](CN(C)S(C)(=O)=O)Oc2ccc(NC(=O)Nc3ccc(C(F)(F)F)cc3)cc2CC1=O	x	0.3	x	1.3	-4	6	x	i	x
COc1ccc(CCNS(=O)(=O)c2cn(C)c(=O)n(C)c2=O)cc1	-6%	0.9	x	1.9	13	6	0.77	i	-3.5
O=C(NCCN1CCOCC1)C(=O)NCC1OCCN1S(=O)(=O)c1ccc(F)cc1 (stereo not drawn)	x	-1.7	-18	1.5	16	13	0.73	i	-5.8
Cc1noc(C)c1S(=O)(=O)Nc1ccc2c(c1)C(=O)N([C@H](C)CO)C[C@H](C)[C@@H](CN(C)Cc1ccncc1)OCCCC[C@H](C)O2	x	1.5	x	0.4	13	2	x	i	x
COc1ccc(C(=O)N2CCC2(C)C(=O)NC(C)C)cc1 (stereo not drawn)	x	-2.5	x	-3.8	18	10	x	i	-0.5
CCOc1ccc(NC(=O)CN(C)C(=O)c2ccc(OCc3ccccc3)c(OC)c2)cc1OCC	11%	3.0	-13	-0.5	-7	-2	0.66	x	0.3
COc1ccc(OCC(=O)Nc2c(Cl)ccc3nsnc23)cc1	x	3.4	-7	-2.3	5	-2	0.72	i	2.0
COc1ccc(/C=C(/NC(=O)c2ccco2)C(=O)N2CCOCC2)cc1	x	-3.8	-2	-0.6	11	7	0.69	i	-2.6
CC(=O)N1CCc2[nH]c3ccc(C)cc3c2C1	2%	3.6	-19	1.6	9	11	x	i	-2.8
O=C(NCC(=O)N1CCN(c2ccccc2F)CC1)c1cccs1	x	5.5	-3	-1.9	3	6	0.71	i	-5.8
COc1ccc(C(=O)CCN2CCC(C)CC2)cc1	-5%	-8.2	2	-1.6	4	3	0.66	i	-0.6
O=C(O)Cn1c(=O)c2c(c3ccccc31)CCC2	39%	-0.2	-24	-1.7	14	8	x	i	-2.9
C[C@@H]1CN([C@H](C)CO)C(=O)c2cc(NC(=O)c3ccncc3)ccc2O[C@@H](C)CCCCO[C@@H]1CN(C)C(=O)Cc1ccccc1	x	1.8	x	-2.9	0	-3	x	i	x
Cc1ccccc1NC(=O)C(C)OC(=O)CCC(=O)c1ccccc1 (stereo not drawn)	-7%	x	x	-5.4	x	x	x	i	-2.6
COC(=O)[C@@H](C)NC(=O)c1ccc2oc(CCc3ccccc3)nc2c1	x	-1.9	x	0.7	1	-3	0.71	i	8.6
COc1ccc2nc(N3CCCC(C(=O)NCCc4ccc(OC)c(OC)c4)C3)sc2c1 (stereo not drawn)	x	1.5	14	0.1	-26	-4	0.7	i	0.8
O=C(Nc1cc(F)ccc1F)N1C[C@H]2[C@@H](c3ccccc31)[C@@H](CO)N2C(=O)c1ccccc1	x	-4.2	x	-0.3	6	2	x	i	x
COc1ccc(-c2nc(SCc3ccccc3)n(C(=O)c3ccco3)n2)cc1	-5%	x	-1	x	x	x	0.7	x	-6.6
O=C(O)C1(c2ccccc2)CCN(S(=O)(=O)c2cccs2)CC1	1%	-3.8	1	0.6	-1	-3	0.66	i	-4.3
CC12CCC(C(=O)N/N=C/c3ccc(O)cc3O)(OC1=O)C2(C)C (stereo not drawn)	6%	8.4	x	-4.6	9	8	x	i	-1.5
CO[C@@H]1CN(C)C(=O)c2ccc(NC(=O)c3cnccn3)cc2OC[C@H](C)N(C(=O)C2CC2)C[C@@H]1C	x	1.1	x	-1.4	0	0	x	i	x
Cc1cc(C)c(C(=O)Nc2ccc3c(c2)OCCO3)c(C)c1	4%	-0.5	x	-1.5	6	2	x	i	-2.8
c1ccc(C2(Cn3ccc4ccccc43)OCCO2)cc1	1%	x	-3	x	x	x	0.69	x	0.1
Cc1cc(C)nc(NC(=O)NS(=O)(=O)N2CCCCCC2)n1	1%	x	-1	x	x	x	0.7	x	3.3
Cc1ccc2cc(C)c(SCC(=O)Nc3cc(C)on3)nc2c1	5%	-0.8	1	9.6	12	13	0.66	i	-2.1
O=C(N/N=C/c1cccc(OC(=O)c2ccco2)c1)c1ccc(F)cc1	25%	x	-6	x	x	x	x	x	-0.2
Cc1cccc(N/C(N)=N/c2nc(CSc3ccc(Cl)cc3)cc(=O)[nH]2)c1	x	-2.2	-7	-15	11	0	0.68	i	x
CCOC(=O)[C@]12CCCC=C1N(Cc1cccc3ccccc13)C(=O)[C@H](CC(=O)NCc1cccc3ccccc13)C2	x	x	x	2.5	x	x	x	i	3.2
